# Lassa entry inh: Lassa virus entry inhibition. Lassa virus pseudotype entry inhibition, cell reporter; control for the full effect not named in the record. Potency, µM (titrated, usually from 37.9 µM), for the others: at the top dose activity change, negative = inhibition, most hits filed as inhibitors. hit rate 1.2% among 300,000; active means well fitted inhibition curve with a large enough effect; inconclusive means small, poorly fitted or top-dose-only effect, or effect the other way; inactive means flat fitted curve, though single readings scatter; tested in HEK293 cells; also: % is scaled to controls: 0 for no effect and ±100 for the full control effect; nearly all actives have a fitted effect of over 50% in size; luciferase read-out
# SARS PLP yeast: blocks SARS-CoV papain-like protease in a yeast assay; S. cerevisiae expressing SARS-CoV PLpro, growth rescue; control for the full effect not named in the record; Potency, µM (doses to about 32.9 µM), inactives show at the highest dose activity, positive = growth rescue; hit rate 0.19% among 330,000; AID 485353; active means well fitted rising curve with a large enough effect; inconclusive means small, poorly fitted or top-dose-only effect; inactive means no such curve, though single readings can be large or run the other way; also: 0% is about no effect; nearly all actives have a fitted effect of over 55% in size; growth read by luminescence after 48 h
# Cruzain noTriton: cruzain (T. cruzi) inhibition without detergent; purified cruzain, Z-FR-AMC fluorescence, no detergent; Potency, µM, inactives show max response, negative = inhibition, most hits filed as inhibitors; hit rate 2.3% among 200,000;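 also: plate controls were enzyme without inhibitor for no effect and buffer without enzyme for full effect; nearly all actives have a fitted effect of over 40% in size; top concentration of the series not given in the record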
# Target sequence (P25779 123-467 limits assumed): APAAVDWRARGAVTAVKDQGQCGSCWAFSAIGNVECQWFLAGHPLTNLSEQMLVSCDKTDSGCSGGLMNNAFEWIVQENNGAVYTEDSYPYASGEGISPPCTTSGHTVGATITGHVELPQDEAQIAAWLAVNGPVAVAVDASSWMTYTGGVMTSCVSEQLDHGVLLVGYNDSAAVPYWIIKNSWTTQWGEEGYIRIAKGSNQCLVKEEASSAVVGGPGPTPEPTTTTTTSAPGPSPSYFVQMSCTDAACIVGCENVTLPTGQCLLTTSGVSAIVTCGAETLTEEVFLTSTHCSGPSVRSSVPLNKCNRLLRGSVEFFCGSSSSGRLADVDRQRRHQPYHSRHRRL
#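 Detergent-free condition (0.00005% Triton X-100) in acetate buffer pH 5.5 with DTT. 1.5 nM enzyme and compound were pre-mixed 15 min, then 2 uM Z-FR-AMC substrate added; reaction progress from fluorescence change between first and third reads (60 s).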
# NS1 inh: influenza NS1 inhibition. S. cerevisiae slowed by influenza A NS1, growth recovery by OD600. Potency, µM (doses to about 46.1 µM), inactives show at the top dose activity, positive = more growth. hit rate 0.4% among 270,000; active means well fitted rising curve with a large enough effect; inconclusive means small, poorly fitted or top-dose-only effect; inactive means no such curve, though single readings can be large or run the other way; also: nearly all actives have a fitted effect of over 50% in size
#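 S. cerevisiae expressing influenza A NS1, grown in glucose, washed, then diluted 1:100 into pH 6.0 -URA galactose medium with 23 nl compound. Growth recovery read as OD600; NS1-free strain serves as control.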
# Cruzain Triton: cruzain (T. cruzi) inhibition with detergent. P25779. purified cruzain, Z-FR-AMC fluorescence, 0.01% Triton. Potency, µM, without a hit: max response, negative = inhibition, actives largely listed as inhibitors. hit rate 0.43% among 200,000. AID 1478;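 also: plate controls were neutral wells for no effect and buffer without enzyme for full effect; nearly all actives have a fitted effect of over 40% in size; top concentration of the series not given in the record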
#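 Steps: dispense cruzain (1.5 nM final) in acetate buffer pH 5.5 with DTT and 0.01% Triton X-100; pin-transfer compounds; incubate 15 min RT; add Z-FR-AMC (2 uM final); read fluorescence every 30 s, using the 60 s intensity change.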
# RE007 growth inh: less growth of the S. pombe RE007 Vpr strain; Potency, µM (highest dose often 92.2 µM), for the others: at the top dose activity change, negative = less growth; S. pombe RE007 Vpr strain, BacTiter-Glo ATP luminescence, 24 h; control for the full effect not named in the record; hit rate 0.21% among 360,000; AID 651644; active = well fitted falling curve with a large enough effect; inconclusive = small, poorly fitted or top-dose-only effect; inactive = no such curve, though single readings can be large or run the other way;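 also: % is scaled to controls: 0 for no effect and ±100 for the full control effect; nearly all actives have a fitted effect of over 50% in size; the assay follows cell death caused by Vpr and the record does not say whether a fall means rescue or toxicity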
#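 Fission yeast RE007 carrying one integrated HIV-1 vpr copy, seeded at OD 0.01 in PMG+AL medium with 23 nL pinned compound. Grown 24 h at 30 degrees; viability read by BacTiter-Glo luminescence after 5 min.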
# Marburg entry inh: blocks Marburg virus binding to or entry into cells; Marburg virus pseudotyped entry inhibition, cell reporter; control for the full effect not named in the record; about a third of the inactives were read at about 46 µM; Potency, µM (doses to about 37.8 µM), for inactives: at the highest dose activity change, negative = inhibition, actives largely listed as inhibitors; hit rate 1.8% among 300,000; AID 540276; active = well fitted inhibition curve with a large enough effect; inconclusive = small, poorly fitted or top-dose-only effect, or effect the other way; inactive = flat fitted curve, though single readings scatter; tested in HEK293 cells; about a fifth of its hits are not listed in these tables; also: % is scaled to controls: 0 for no effect and ±100 for the full control effect; luciferase read-out
# 2A StopGo: FMDV 2A StopGo reporter, luciferase signal; Potency, µM (series often up to 57.9 µM), inactives show at the top dose signal change, negative = less light; hit rate 1.2% among 410,000; human cells with a luciferase reporter of 2A StopGo recoding; control for the full effect not named in the record; active = well fitted falling curve with a large enough effect; inconclusive = small, poorly fitted or top-dose-only effect; inactive = no such curve, though single readings can be large or run the other way; tested in HEK293T cells; also: % is scaled to controls: 0 for no effect and ±100 for the full control effect; nearly all actives have a fitted effect of over 45% in size; luciferase light after 4 h
# An asterisk follows results filed as active; ? = inconclusive; / = not tested or not shown; & = joins results of further samples; [ ] = remark or other dose. Unless noted, calls follow the shape of the dose curve; as a rule, active = well fitted curve in the direction sought with a large enough effect; inconclusive = small, poorly fitted or top-dose-only effect, or another doubt; inactive = no such curve, though single readings can be large; an effect the other way counts as inactive or inconclusive. Potency is read from the fitted curve at half-maximal effect.
SMILES,Lassa entry inh,SARS PLP yeast,Cruzain noTriton,NS1 inh,Cruzain Triton,RE007 growth inh,Marburg entry inh,2A StopGo
COc1cc(C(=O)ON=C2C=C(C)C(=O)C(C)=C2)cc(OC)c1OC,0%,-11%,?,-10%,3.5µM*,-2%,-25%,-16%
CC1CCCN(C(=O)CCCn2c(=S)[nH]c3ccccc3c2=O)C1 (stereo not given),1%,5%,-5%,-10%,-2.4%,-11%,-20%,-7%
NC(=S)N=Nc1ccc(O)cc1,-2%,/,/,/,/,-15%,?,8%
Cc1cc(C(=O)N2CCCC2)n[nH]1,/,-3%,/,-5%,/,-7%,/,2%
O=C(NCCO)C(=O)NCC(c1ccc2c(c1)OCO2)N1CCOCC1 (stereo not given),5%[46.1 µM],/,6%,/,0.7%,/,/,-13%
COc1ccc(NC(=O)CN(C)C(=O)c2ccc(COc3ccccc3)o2)cc1,-2%,-3%,/,/,/,-18%,-14%,-2%
Cc1cccc(CN2C(=O)c3ccccc3Sc3ccc(C(=O)NCc4ccco4)cc32)c1,?,/,?,/,1.0%,/,/,-7%
OCCNc1nc(-c2ccccc2)c2cc(Br)ccc2n1,/,-6%,/,0%,/,-17%,/,-2%
Cc1ccc(S(=O)(=O)N2CCOCCOCCOCCOCCOCC2)cc1,/,6%,/,5%,/,7%,/,-3%
Cc1oc(-c2ccccc2F)nc1CN1CCC(C(=O)NC2CC2)CC1,-3%,8%,-10%,7%,2.3%,0%[3.69 µM],-5%,-7%
CCOC(=O)c1ccc(NC(=O)CSc2nnnn2CCCO)cc1,3%,-5%,-8%,-1%,-4.0%,-1%,5%,-17%
Cc1cccc(C(=O)Nc2cccc(C(=O)Nc3cc(C)ccn3)c2)c1,/,-4%,/,4%,/,5%,/,20%
Cc1cc(C)n(CC(=O)c2ccccc2)c(=O)c1C#N,15%,5%,-2%,2%,1.6%,20%,?,0%
COc1ccccc1NC(=O)N(C1CCCC1)C1CCN(C(C)=O)CC1,-2%,-4%,-3%,-3%,-0.1%,5%,-25%,-19%
Cc1noc(C)c1CN1C(=O)c2cccc([N+](=O)[O-])c2C1=O,-3%,4%,/,13%,/,5%,-7%[46.1 µM],-22%
CCOC(=O)N1CCC(NC(=O)CCCC(=O)O)CC1,10%,0%,/,2%,/,-14%,2%&2%,4%
Cc1cccc2nc(-c3cccnc3)c(Nc3ccccc3)n12,?,-9%,/,/,/,18%,?,32µM*
Cc1ccc([N+](=O)[O-])cc1NC(=O)c1ccc2c(c1)OCO2,-6%,0%,/,1%,/,-16%,2%[46.1 µM],5%
Cc1ccccc1NC(=O)c1c(C)oc2ccc(O)c(CN3CCCC3)c12,0%[46.1 µM],/,-26%,/,-4.1%,/,?,-20%
O=C1C2C3C=CC(C3=C3CCCCC3)C2C(=O)N1Cc1ccccc1 (stereo not given),?,-25%,-2%,-15%,-7.7%,?,-2%,/
CCc1ccc(NC(=O)CCc2c(C)n(C)c3cc(-c4ccccc4C)nn3c2=O)cc1,-16%[46.1 µM],/,6%,/,1.2%,/,/,-8%
Cc1cccc(C)c1OCC(=O)NNC(=O)c1ccoc1C,?,5%,-1%,-12%,0.3%,-6%,?,13%
Nc1ccc(C(=O)N/N=C/c2cccc(Oc3ccccc3)c2)cc1,/,-1%,/,-20%,/,6%,/,6%
COC(=O)c1ccc(CNC(=O)c2ccc(NS(=O)(=O)c3ccc4[nH]c(=O)[nH]c4c3)cc2)cc1,-4%[46.1 µM],?,/,/,/,-7%,13%,-6%
Cc1ccc(S(=O)(=O)Nc2ccc(S(=O)(=O)NCC3CCCO3)cc2)cc1 (stereo not given),0%[46.1 µM],1%,/,1%,/,1%,4%[46.1 µM],6%
O=S1(=O)CCN(Cc2ccc(Cl)c(Cl)c2)CC1,23%,-9%,13%,0%,0.8%,-1%,0%,0%
CCOC(=O)N1CCN(C(=O)c2ccc(OCC)c(OCC)c2)CC1,15%,7%,6%,1%,0.3%,1%,3%,3%
Cc1ccc(NC(=O)CS(=O)CC(=O)N(CC(=O)NC2CCCC2)c2cccc(C)c2C)cc1 (stereo not given),7%,-1%,?,-5%,-0.1%,3%,-14%,/
CCOC(=O)C(/C=C(\C#N)C(=O)OCC)=C(/N)N1CCN(c2ccc(Cl)cc2)CC1,-5%,10%,?,-5%,-21%,-1%,-22%,-24%
COc1ccc(CN2CC[C@@H](N3CCOCC3)[C@H](O)C2)cc1F,0%,0%,/,4%,/,0%,-4%,-11%
Cc1ccc(CC(NC(=O)c2ccccc2)C(=O)NC(Cc2ccccc2)C(=O)O)cc1 (stereo not given),-1%,4%,/,/,/,4%,2%[46.1 µM],6%
COc1cc(/C=C2/SC(=S)N(Cc3ccccc3)C2=O)ccc1O,4%[46.1 µM],-4%,/,22%,/,4%,13%[46.1 µM],-4%
CCN(CCCl)Cc1ccccc1Br,-9%,/,8%,-2%,1.8%,-1%[18.4 µM],?,-17%
COc1ccc(-c2coc3cc4oc(=O)c(CC(=O)O)c(C)c4cc23)cc1,/,2%,/,1%,/,-2%,/,-18%
CC12CN3CC(C)(CN(C1)C3c1cccs1)C2O (stereo not given),1%,5%,7%,0%,4.1%,6%,1%,-11%
COC(=O)CSc1nc2sc3c(c2c(=O)n1Cc1ccccc1)CCC(C(C)(C)C)C3 (stereo not given),18%[46.1 µM],/,-11%,/,-0.1%,/,/,-16%
O=C(NCCc1nc(-c2ccccc2)cs1)c1ccc(Br)cc1,6%,-37%,1%,-11%,-4.9%,-5%,14%,?
O=C(NC1CCCCC1)C(c1ccccc1)N(Cc1cccnc1)C(=O)c1csnn1 (stereo not given),-16%[46.1 µM],1%,/,3%,/,72%,?,-3%
Cc1ccsc1C(=O)Nc1nnc(-c2ccco2)o1,-3%,-13%,-10%,-36%,0.8%,9%[3.69 µM],-13%,18%
CCCCc1ccc(NC(=O)CSc2nc3ccccc3nc2N2CCCCC2)cc1,8%[46.1 µM],/,2%,/,-1.6%,/,2%[46.1 µM],-7%
CC(=O)Nc1ccc(NC(=O)c2ccc(NS(=O)(=O)c3cccc4cccnc34)cc2)cc1,5%[46.1 µM],1%,/,4%,/,-2%,?,10%
COc1ccc([N+](=O)[O-])cc1NC(=O)c1ccc(C)o1,19%,8%,-3%,-6%,-0.7%,-2%,15%,-13%
COc1ccc2[nH]c(=O)c(CN(C(=O)NC3CCCCC3)C3CCCCC3)cc2c1,13%,2%,-1%,-19%,4.2%,-2%,8%,4%
Cn1c(CC(=O)Nc2ccccc2)cc2ccccc21,/,8%,/,9%,/,0%,/,65%[activator]
CC(C)(C)SCCNC(=O)COc1ccc(Cl)cc1,0%,-1%,6%,-4%,-7.3%,2%,2%,/
O=C1/C(=C/c2cccnc2)SC(=S)N1Nc1ccccc1,-7%,-5%,/,0%,/,12%,-6%[46.1 µM],-15%
CSc1ccccc1NC(=O)COc1ccc(Cl)cc1Cl,19%,5%,0%,-7%,-7.6%,27%,?,-2%
O=C(C1Cc2ccccc2CN1S(=O)(=O)c1ccc(F)cc1)N1CCCCC1 (stereo not given),?,2%,-9%,-49%,-0.6%,5%,-13%,0%
CCOC(=O)c1sc(C(=O)OCC)c(OCCO)c1OCCO,-3%,0%,10%,-2%,1.1%,-3%,8%,20%
CCN1CCN(C(=O)Nc2ccccc2OC)CC1,?,15%,-2%,27%,1.6%,5%,15%,/

# Additional compounds
SMILES,Lassa entry inh,SARS PLP yeast,Cruzain noTriton,NS1 inh,Cruzain Triton,RE007 growth inh,Marburg entry inh,2A StopGo
O=C(O)CCCn1cc(NC(=O)COc2ccccc2)cn1,/,15%,/,9%,/,6%,/,0%
CC1CCN(S(=O)(=O)c2ccc3c(c2)c(=O)c(C(=O)N2CCOCC2)cn3C)CC1,/,-7%,/,11%,/,-9%,/,14%
COc1ccc(-n2c(=O)c3c4c(sc3n(CC(=O)C(C)(C)C)c2=O)CCCC4)c(OC)c1,19%[46.1 µM],/,11%,/,-2.7%,/,23%[46.1 µM],-12%
O=C(CCc1ccccc1)NC(=S)Nc1ccc(S(=O)(=O)N2CCOCC2)cc1,-11%,12%,9%,14%,-10%,-1%,?,?
CCN(CC)S(=O)(=O)c1ccc(C)c(NC(=O)Cn2c(=O)cnc3ccccc32)c1,14%,2%,5%,1%,0.4%,-3%,-3%[46.1 µM],-23%
CCCCn1c(N)c(N(CCOC)C(=O)c2ccc(-n3c(C)ccc3C)cc2)c(=O)[nH]c1=O,-19%,-1%,/,/,/,1%,-2%[46.1 µM],3%
c1ccc(CCNc2nc(-c3ccccn3)nc3ccccc23)cc1,?,-1%,/,-58%,/,1%,?,?
COc1ccc(-c2nnc3ccc(SCC(=O)N4CCCCC4)nn23)cc1OC,/,1%,-1%,-36%,-0.5%,-5%,/,0%
Cc1nc(C)c(/C(O)=C/c2nc3ccccc3oc2=O)s1,0%,-46%,9%,-29%,-7.3%,?,?,-23%
C=CCNC(=S)N1CCN(CCNC2=CC(=O)CC(C)(C)C2)CC1,18%,-1%,/,-3%,/,18%,-2%,-15%
CC1=C(C(=O)Nc2ccc(F)cc2F)C2(CCN(C(C)C)CC2)OC1=O,?,/,-1%,/,-1.4%,/,/,-5%
Cc1ccc(-c2nc3ncccc3o2)cc1NC(=O)c1ccc(-c2cccc(Cl)c2C)o1,27%[46.1 µM],/,3%,/,-2.5%,/,/,?
COc1ccc(OC)c(NC(=O)CCc2nc(-c3ccc(C)cc3)no2)c1,-1%[46.1 µM],/,-7%,/,-2.0%,/,1%[46.1 µM],-20%
CC(=O)c1ccc(C(=O)Nc2ccc(N3CCOCC3)cc2)cc1,0%,-1%,-9%,22%,4.6%,32%,16%,-15%
O=CNn1cnc2c(oc3nc(-c4ccccc4)cc(-c4ccco4)c32)c1=O,-1%,-1%,/,/,/,3%,12%[46.1 µM],-8%
O=C(COC(=O)c1ccccc1Nc1ccccc1)NCc1ccco1,-27%,10%,-12%,-13%,-0.4%,0%,-9%,-4%

# Not a hit list (roughly 4.8% active in at least one column).
